Source: PubChem
BasE inh – BasE siderophore enzyme inhibitors, primary screen, biochemical, Acinetobacter baumannii ATCC 17978, fluorescence polarization; 84,000 compounds, 0.1% hits; inhibition, % (test concentration not listed); AID 485350, 2010; purified BasE, fluorescence polarization binding displacement;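 active means both replicates above 25% with normal brightness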;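 further: 0% = negative plate control signal and 100% = positive plate control signal; stock transfer was 100 nL into about 30 µL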
LANA-nucl inh – inhibitors of KSHV LANA-nucleosome binding, primary screen, biochemical, fluorescence polarization, FITC-LANA1-23, chicken nucleosomes; FITC-LANA1-23 / chicken nucleosome fluorescence polarization; stronger effect = lower value; z-score (no concentration beside the values); 51,000 compounds, 0.3% hits; AID 720717, 2013;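 active means both repeat wells score below -2 in polarization z-score versus plate sample wells, excluding overly bright wells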;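 further: 100 nL library stock added to about 30 µL; numbers are from one replicate; some results filed as inactive read as strong as hits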
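System – purified chicken nucleosomes with FITC-labelled LANA N-terminal peptide (1-23) · Amount – 240 nM purified chicken nucleosomes (480 nM peptide binding sites), final · Also added – 50 nM FITC-LANA1-23 probe · Medium – TEN-BT buffer, pH 7.5 · Incubation – compound with peptide–nucleosome mix 10–45 min at room temperature · Detection – fluorescence polarization, ex 480 nm, em 535 nm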
An asterisk follows results filed as active; x = no result given; & = joins results of further samples.

nr	Structure	BasE inh	LANA-nucl inh
1	Cc1occc1C(=O)C(C#N)=C1SCCCS1	0.1	-0.674
2	CC(C)N(CCC#N)C(=O)Nc1ccc(C(C)(C)C)cc1	1.3	-0.649
3	Cc1ccc(N2C(=O)C(C)N=C2N(C)C2CCCCC2)cc1 (stereo not given)	3.2	0.047
4	CC(=NCc1ccncc1)C1=C(O)c2ccccc2C1=O	-3.0	1.42
5	CC(C)CC(O)(CC(C)C)C(=O)NNc1ccccc1	0.7	-0.335
6	CCOC(=O)c1c(C#N)c(SC)nc2c1CCCC2	3.9	-0.0225
7	Cc1ccc(Nc2nc3nonc3n3cnnc23)cc1Cl	2.1	-0.0765
8	Cc1ccc(CNC(=O)CCC(=O)O)cc1	2.4	-0.846
9	CC(Cc1c[nH]c2ccccc12)NC=O (stereo not given)	0.9	0.109
10	CSCCC(=O)Nc1ccc(-c2ccccc2)cc1	3.8	x
11	COc1ccc(N2CCN(C(=O)c3cccc4ccccc34)CC2)cc1	-0.1	0.406
12	CCS(=O)(=O)Nc1cc(F)ccc1C	-0.3	0.05
13	CC(C)Cn1c(-c2ccc(F)cc2)n[nH]c1=S	0.7	0.356
14	CN(C)N=Nc1ccc(-c2cn(Cc3ccccc3)cn2)cc1	3.0	-0.231
15	Cc1ccc(CNC(=O)CN2NS(=O)(=O)c3ccccc3C2=O)cc1	0.3	x
16	Cc1ccc(/C=C/C(=O)N(C2=NC(C)CS2)c2ccc(Cl)cc2)o1 (stereo not given)	0.7	x
17	CS/C(N)=N/N=C(\C)c1ccc(Br)cc1	2.6	0.405
18	CCOC(=O)Cn1c(-c2ccccn2)nc2ccccc21	-1.9	-0.0185
19	O=C(c1cc(-c2ccccc2)on1)N1CCN(c2ccccc2)CC1	1.8	0.586
20	O=C(Nc1ccccc1)NC1(C(=O)N2CCN(C(=O)c3ccco3)CC2)CCCCC1	0.9	0.555

(continued)
nr	Structure	BasE inh	LANA-nucl inh
21	CCNC(=S)N1CCN(CCN=CC2=C(O)CC(C)(C)CC2=O)CC1	1.1	0.296
22	COc1cc2ncnc(Nc3ccc(F)c(Cl)c3)c2cc1OCCCN1CCOCC1	x	-0.109
23	COc1ccc2c(c1)CCC1C2CCC2(C)C(=O)CCC12 (stereo not given)	-3.1	x
24	CCc1nnsc1C(=O)Nc1ccc(S(N)(=O)=O)cc1	1.2	-1.51
25	CCOC(=O)c1sc(N)c(C#N)c1CSc1nnc(C2CC2)n1N	-6.5	x
26	CCC(C)(C)NC(=O)/C=C/c1ccc(OC(F)F)c(OC)c1	-2.3	x
27	CNc1c(=O)[nH]c(O)c2ccccc12	-1.2	0.485
28	CC1(C)CC(NC(=S)NC(=O)c2ccco2)CC(C)(C)N1	0.0	x
29	CC1CCCCN1CCCNC(=O)Cc1ccc(NC2=NC3CS(=O)(=O)CC3S2)cc1 (stereo not given)	-3.1	-0.233
30	O=C(OCC1CC(c2ccccn2)=NO1)c1ccc(Br)cc1 (stereo not given)	-6.9	x
31	N#Cc1ccc(S(=O)(=O)Nc2ccccc2Sc2nc3ccc(Cl)cc3s2)cc1	2.0	x
32	CS(=O)(=O)c1ccccc1C(=O)Nc1cc(Cl)ccc1-n1cncn1	0.5	x
33	Cc1n[nH]c(=S)n1Cc1ccccc1	2.4	x
34	CCCCN=C1NN=C(c2cc3ccccc3o2)CS1	-4.3	x
35	Clc1ccc2oc(-c3ccccc3)cc(=NCC3CCCO3)c2c1 (stereo not given)	0.1	x
36	O=C1c2ccccc2NC(c2cccc(O)c2)N1O (stereo not given)	3.3	x
37	COc1ccc(-c2cc(C)no2)cc1S(=O)(=O)N1c2ccccc2CC1C (stereo not given)	-2.0	x
38	N#C/C(=C\c1cn(Cc2ccccc2)c2ccccc12)C(=O)NC1CC1	-0.6	0.051
39	C/C(=C/c1ccccc1)C(=O)Nc1ccc(S(N)(=O)=O)cc1	0.0	0.685
40	O=c1cc(CSc2nnc(-c3cccnc3)o2)c2cc3c(cc2o1)CCC3	1.2	x

(continued)
nr	Structure	BasE inh	LANA-nucl inh
41	O=C(CN1C(=O)C2CC=CCC2C1=O)N1CCN(S(=O)(=O)c2ccc3c(c2)OCCCO3)CC1 (stereo not given)	3.0	x
42	O=C(CN1CCCc2ccccc21)NCCc1ccc(F)cc1	0.5	x
43	CCCC(=O)O[C@]1(C(=O)CO)CCC2[C@@H]3CCC4=CC(=O)CC[C@]4(C)C3[C@@H](O)C[C@@]21C (stereo not given in full)	1.0	0.201&0.235
44	COc1ccccc1C(=O)N(CC(=O)Nc1ccccc1C(F)(F)F)Cc1ccco1	-1.7	x
45	O=C(CCSc1ccc2ccccc2n1)NCCc1ccccc1	1.1	x
46	O=S1(=O)CCC(N2CCN(c3ncnc4sccc34)CC2)C1 (stereo not given)	0.7	x
47	O=C1NCC2=C1C(c1ccccc1O)Nc1ccccc1N2 (stereo not given)	-1.6	0.0825
48	O=C(Cn1c(=O)c2sccc2n(CC(=O)Nc2ccccc2)c1=O)NCc1ccco1	-1.4	-0.89
49	COc1cc(/C=N/NC(N)=O)ccc1OC(=O)c1cccs1	-4.4	x
50	O=C(OCc1sccc1Oc1ccccc1)c1ccc(Cl)cc1	-1.2	x
51	O=c1[nH]c2ccccc2c(=O)n1NC(=S)NCc1ccco1	1.3	x
52	C(=N\Nc1ccc(N2CCOCC2)nn1)/C1=C(N2CCOCC2)C(=C/c2ccccc2)/CC1	0.9	x
53	Nc1nnc(CC(=O)N2CCCC2)s1	-0.1	0.0275
54	O=C(OCc1ccccc1)N1CCOCCN(C(=O)OCc2ccccc2)CCOCC1	0.1	-1.25
55	CCOC(=O)c1c(C)oc2c1c(C=NC1CC(C)(C)NC(C)(C)C1)c(O)c1ccccc12	-1.4	-1.5
56	CC(=O)Nc1c(Cl)c(Cl)c(NC(C)=O)c2n[nH]nc12	3.7	0.234
57	CCOC(=O)c1cnn(C)c1NS(C)(=O)=O	1.7	0.303
58	O=S(=O)(NCc1ccc2c(c1)OCO2)c1ccc(S(=O)(=O)NC2CCCCC2)cc1	0.2	-0.936
59	CC(Sc1nnc(-c2ccc(Cl)cc2)n1Cc1ccco1)C(=O)NCCC1=CCCCC1 (stereo not given)	-4.0	x
60	Cc1ccc2nc(CSc3nc4ccccc4n3C)cc(=O)n2c1	-5.9	x

Other results:
nr	Structure	BasE inh	LANA-nucl inh
61	CC(NC(=O)COc1ccccc1)C(=O)N1CCC(=O)CC1 (stereo not given)	20.3	x
62	Cc1ccc2nc(-c3ccc(NC(=O)C(C)C)cc3)[nH]c2c1	-0.9	-1.2
63	Cc1ccsc1C(=O)Nc1cc(C(C)(C)C)nn1-c1ccccc1	1.2	x
64	C(=N/n1cnnc1)/c1ccsc1	x	-0.623
65	NNC(=O)C1CCN(S(=O)(=O)c2ccccc2N)CC1	2.3	-0.0195
66	O=C(c1cccc(S(=O)(=O)Nc2cc(C(F)(F)F)ccc2Cl)c1)N1CCN(c2ncccn2)CC1	1.5	x
67	Cc1ccccc1C(=O)NCC1COc2ccccc2O1 (stereo not given)	0.1	-0.487
68	C[C@H](NC(CCc1ccccc1)C(=O)O)C(=O)N1CCC[C@H]1C(=O)O (stereo not given in full)	x	0.21&-0.431
69	NC(=O)N/C(CSc1ccc(Cl)cc1)=N\O	-0.8	x
70	Cc1ccc(C)c(CN2CCN(c3ncc(C(F)(F)F)cc3Cl)CC2)c1	-0.9	x
71	CC(C)(O)C1Cc2cc(/C=C/C(=O)O)c(O)cc2O1 (stereo not given)	1.6	-1.74
72	Oc1ccccc1C=Nc1ccc2oc(-c3cccc(I)c3)nc2c1	1.9	x
73	NC(=O)C[C@H](NC(=O)c1ccccc1Cl)C(=O)O	1.1	x
74	OC(COc1ccc(Cl)cc1Cl)CN1CCCCC1 (stereo not given)	2.3	0.786
75	CCn1c(=O)c2ccccc2n(Cc2cccc(Cl)c2)c1=O	-0.2	-0.975
76	CCN1CCN(C(=O)NC(C(=O)N[C@@H]2C(=O)N3[C@@H]2SC(C)(C)[C@@H]3C(=O)O)c2ccccc2)C(=O)C1=O (stereo not given in full)	-0.1	0.0475&0.173
77	CCCCNC(=S)Nc1ccc(C)cc1	3.1	0.809
78	O=C(Cn1cnc2c(nc3n2CCCCC3)c1=O)NC1CCCCCC1	-0.3	1.06
79	Cc1cc(C)n(CC(=O)N/N=C/c2sc(N3CCCCC3)nc2-c2cccs2)n1	0.3	x
80	O=C(Nc1ccccc1I)c1ccnc(-n2cnnc2)c1	0.3	-2.01

Next structures follow.
nr	Structure	BasE inh	LANA-nucl inh
81	O=C(N/N=C/c1ccco1)c1nn(Cc2ccccc2)c(=O)c2ccccc12	0.6	x
82	Cc1cc(S(=O)(=O)N2CCN(C)CC2)c(C)cc1Cl	-2.5	0.312
83	CN(C)c1ccc(NC(=O)CSc2nnc(C3CC3)n2N)cc1	1.4	x
84	O=C(Nc1c[nH]c(=O)[nH]c1=O)c1ccco1	0.5	-0.364
85	CS(=O)(=O)n1cc(C(=O)C(F)F)c2ccccc21	-2.5	2.37
86	CNC(=S)NCC(c1ccco1)N1CCCCC1 (stereo not given)	0.7	x
87	O=C(Cc1ccccc1)N1CCC(c2nc3ccccc3[nH]2)CC1	0.7	0.152
88	CCOC(=O)CSc1ncc(C(F)(F)F)cc1Cl	x	0.29
89	CNC(=O)NC(=O)C(C)N1c2ccccc2NC(=O)C1CC(=O)Nc1ccc(C)cc1C (stereo not given)	-4.9	x
90	CC(C)CC(NC(=O)CC12CC3CC(CC(C3)C1)C2)C(=O)O (stereo not given)	2.6	-0.337
91	Cc1ccc2[nH]c(=O)c(C3=NN(C(=O)c4ccco4)C(c4ccco4)C3)c(-c3ccccc3)c2c1 (stereo not given)	2.5	x
92	Cn1c(=O)n(CCOc2ccccc2)c2ccccc21	-1.0	x
93	Cc1c(C(=O)Nc2ccc(S(N)(=O)=O)cc2)oc2ccccc12	-0.7	0.066
94	CC1(NC(=O)CN2CCCCC2c2nc3ccccc3s2)CCS(=O)(=O)C1 (stereo not given)	0.6	x
95	CCc1ccc(NC(=O)/C=C/c2ccco2)cc1	-0.6	-0.532
96	CCCOc1ccc(/C(C)=N\NC(=O)c2nnn(-c3nonc3N)c2CSc2ccccc2)cc1OC	-0.3	1.43
97	CCOC(=O)c1c(C)oc2c1c(O)c(N=O)c1ccccc12	-1.8	0.191
98	CC1CCC(C)N1c1cc(C(F)(F)F)cc(C(F)(F)F)c1 (stereo not given)	4.5	x
99	O=C(CSc1nnc2sc3ccccc3n12)NC(=O)c1ccc(OC(F)F)cc1	-3.4	x
100	COCCn1c(C)cc(C2=Nn3c(nnc3-c3ccccc3F)SC2)c1C	-0.1	x

Part of the list above, with two lines to a compound:
Under each structure – BasE inh	LANA-nucl inh
95. CCc1ccc(NC(=O)/C=C/c2ccco2)cc1
 : -0.6	-0.532
58. O=S(=O)(NCc1ccc2c(c1)OCO2)c1ccc(S(=O)(=O)NC2CCCCC2)cc1
 : 0.2	-0.936
11. COc1ccc(N2CCN(C(=O)c3cccc4ccccc34)CC2)cc1
 : -0.1	0.406
94. CC1(NC(=O)CN2CCCCC2c2nc3ccccc3s2)CCS(=O)(=O)C1 (stereo not given)
 : 0.6	x
86. CNC(=S)NCC(c1ccco1)N1CCCCC1 (stereo not given)
 : 0.7	x

Next compounds.
nr	Structure	BasE inh	LANA-nucl inh
101	O=C(NCCN1CCCCC1)Nc1c[nH]c2c(Cl)cccc2c1=O	-0.3	-0.975
102	c1ccc(-c2cnc(SCCN3CCCCC3)nn2)cc1	-1.8	-0.369
103	CCC1CSC(Nc2c(C)cccc2C)=N1 (stereo not given)	2.2	-0.568
104	COc1cc(C(N)=O)cc(I)c1OC	1.2	0.257
105	O=C(CN1CCc2ccccc2C1)NCc1ccco1	3.8	x
106	Cc1ccccc1OCC(=O)N1CCN(C=O)CC1	-0.1	-0.01
107	Cc1ccc(C)c(N2CCN(C(=O)Cn3c(=O)oc4ccccc43)CC2)c1	-2.8	2.06
108	O=C1c2cccnc2C(=O)N1Cc1ccc(S(=O)(=O)N2CCOc3ccccc32)cc1	2.5	0.469
109	Cc1sc(NC(=O)Cn2c(=O)cnc3ccccc32)c(C#N)c1C	-2.7	x
110	CCOC(=O)c1c(-c2ccccc2)oc2cc(CN(C)C)c(O)c(CN(C)C)c12	2.1	2.5
111	Cc1ccc(CNC(=O)CC2(CC(=O)O)CCCC2)cc1	0.5	x
112	N#Cc1ccc(/C=N/n2c(-c3ccc(OC(F)F)cc3)csc2=NCCN2CCOCC2)cc1	-6.5	x
113	Cc1nc(N2CCCCCC2)c2ccccc2n1	1.4	0.44
114	CC(=C\c1ccccc1)/C(C)=N/O	-0.5	x
115	CCOC(=O)c1c(/N=C/N(C)C)sc2c1CCC2	5.2	0.084

Three of the entries above in order of the LANA-nucl inh value, lowest first:
item	mol	LANA-nucl inh
102	c1ccc(-c2cnc(SCCN3CCCCC3)nn2)cc1	-0.369
107	Cc1ccc(C)c(N2CCN(C(=O)Cn3c(=O)oc4ccccc43)CC2)c1	2.06
110	CCOC(=O)c1c(-c2ccccc2)oc2cc(CN(C)C)c(O)c(CN(C)C)c12	2.5

Only part of the results is shown. The share of hits here may be higher or lower than overall.
